Biofilm kill mix: mixture kills Candida albicans biofilm cells | C. albicans biofilm persisters + clotrimazole, fluorescence viability; primary screen in compound mixtures of four per well | inhibition, % at 7.6 µM | hit rate 0.02% among 120,000 | AID 1242;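 active = inhibition above 30.3% in the primary screen of four-compound pools, then above 30% when the compound was retested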;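 note: compounds exposed to preformed 24 h biofilms for 48 h; the number belongs to the whole pool; some results filed as inactive read as strong as hits; inactives centre near 12; 0% = biofilm with clotrimazole alone and 100% = kill control; retested singly at about 60 µM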
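System: C. albicans CAF4-2 wild-type biofilms; Medium: RPMI/MOPS medium, pH 7.0; Reagent: Clotrimazole, 50 µg/mL; Times: biofilm formation 24 h, compound exposure 48 h, 37 °C; Detection: 2-h Alamar Blue fluorescence, 535/590 nm excitation/emission; Evaluation: percent inhibition of biofilm viability.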
Numbers without * were called inactive. Not all compounds are listed; rates above refer to the full screens.

What do the screens show for `Cc1cc(C)n2cc(CSCc3ccccc3)nc2n1`?
Biofilm kill mix: -3

How did O=C(N/N=C/c1cc(Br)cc(Br)c1O)c1cccc(N2CCCC2=O)c1 do in these assays?
Biofilm kill mix: 29

Results for O=C(NCc1ccco1)c1cc(=O)c2ccccc2o1 ?
Biofilm kill mix: 12

Results for O=C(Cn1ccc([N+](=O)[O-])n1)NCc1cccnc1 ?
Biofilm kill mix: 19

What do the screens show for `CCc1cccc(OCC(=O)Nc2c[nH]c(=O)[nH]c2=O)c1`?
Biofilm kill mix: 12

What do the screens show for `Cc1ccc(-c2cc(C(=O)N3CCN(c4ncccn4)CC3)c3cc(Br)ccc3n2)o1`?
Biofilm kill mix: 24

Results for Cc1c(Br)c([N+](=O)[O-])nn1CC(=O)Nc1ccc(C(N)=O)cc1 ?
Biofilm kill mix: 9

Results for O=C(COC(=O)c1ccccc1Br)Nc1ccc(F)cc1 ?
Biofilm kill mix: 7

How did CN(C)C(=O)c1nc2ccc(Cl)cn2c1CN1CCCC(OCc2cccnc2)C1 (centres undefined) do in these assays?
Biofilm kill mix: 8

Results for N#C/C(=C\c1ccco1)C(=O)Nn1cnnc1 ?
Biofilm kill mix: -8

What do the screens show for `COc1ccc(NC(=O)c2cc(S(=O)(=O)N3CCOCC3)cs2)cc1`?
Biofilm kill mix: 6

Results for CCC(C)(C(=O)NC1CCCCC1)N(Cc1cccs1)C(=O)c1ccc(=O)[nH]c1 (centres undefined) ?
Biofilm kill mix: 2

What do the screens show for `Cc1ccnc(NC(=O)CCC(=O)N(CC(=O)NCc2ccccc2)Cc2ccco2)c1`?
Biofilm kill mix: 3

Results for COCc1ccc(CN2CCc3c([nH]c4ccccc34)C2CC(C)C)o1 (centres undefined) ?
Biofilm kill mix: 17

How did Cc1c(NC(=O)c2ccc(-c3ccccc3)cc2)cccc1C(=O)O do in these assays?
Biofilm kill mix: 23

What do the screens show for `CC1(C(=O)NCc2cc(F)cc(C(F)(F)F)c2)C=CC2(CCCCC2)N1C(=O)c1ccccc1` (centres undefined)?
Biofilm kill mix: 12

Results for COc1ccc(OC)c(NC(=S)NCCN2CCOCC2)c1 ?
Biofilm kill mix: 10

What do the screens show for `CCCc1cc(=O)n2[nH]c(C(F)(F)F)nc2n1`?
Biofilm kill mix: 2

Results for O=C(Nc1ccc2c(c1)C(=O)OC2)c1ccc(F)cc1F ?
Biofilm kill mix: -5

Results for COC(=O)c1cccc(NC(=O)CC2NCCNC2=O)c1 (centres undefined) ?
Biofilm kill mix: 8

What do the screens show for `COc1ccc(-c2cc(=O)n(CCC#N)[nH]2)cc1`?
Biofilm kill mix: 13

What do the screens show for `CC(/C=N/N1CCN(c2ccc(C)cc2)CC1)=C\c1ccccc1`?
Biofilm kill mix: 16

How did Cc1ccc(/C=C/C(=O)Nc2cc(S(N)(=O)=O)ccc2O)cc1 do in these assays?
Biofilm kill mix: 4

Results for Cc1cc(CNC(=O)Cc2ccc(F)cc2)c2ccccc2n1 ?
Biofilm kill mix: -6

What do the screens show for `COc1ccc(NC(=O)/C=C/c2ccco2)cn1`?
Biofilm kill mix: 13

What do the screens show for `Cc1cc(C)c2nc(NNC(=O)c3ccc(S(=O)(=O)N4CC(C)CC(C)C4)cc3)sc2c1` (centres undefined)?
Biofilm kill mix: 12

Results for COc1ccc([N+](=O)[O-])cc1NC(=O)Cn1ccsc1=N ?
Biofilm kill mix: 10

What do the screens show for `COc1ccc(CCN2CN(S(=O)(=O)c3ccccc3)c3nc4ccccc4nc32)cc1`?
Biofilm kill mix: 12

How did O=C(NCc1ccc(Cl)cc1Cl)C1CCN(S(=O)(=O)c2ccc3c(c2)OCCCO3)CC1 do in these assays?
Biofilm kill mix: 15

What do the screens show for `Cc1c(C(=O)c2ccccc2)c2ccccn2c1CCC#N`?
Biofilm kill mix: 17

What do the screens show for `O=C(O)/C=C/C(=O)Nc1cccc2cccnc12`?
Biofilm kill mix: 10

How did COc1cccc(C2C(C(=O)c3ccco3)=C(O)C(=O)N2CCN(C)C)c1OC (centres undefined) do in these assays?
Biofilm kill mix: 5

Results for CCN(CC)CCN1C(=O)c2ccccc2NC1c1ccccc1F (centres undefined) ?
Biofilm kill mix: 6

What do the screens show for `CC(=O)Nc1ccccc1NC(=O)c1cc(C)ccc1C`?
Biofilm kill mix: 12

Results for O=C(NC(=S)Nc1c(Cl)ccc2nsnc12)c1ccco1 ?
Biofilm kill mix: 13

How did O=C(NC1CCCc2ccccc21)c1ccc(S(=O)(=O)N2CCOCC2)cc1 (centres undefined) do in these assays?
Biofilm kill mix: -1

Results for O=C(NC(Cc1ccccc1)C(=O)O)/C(=C\c1ccco1)NC(=O)c1ccco1 (centres undefined) ?
Biofilm kill mix: 7

Results for Cn1c(SCC(=O)N/N=C/c2ccco2)nc2ccccc21 ?
Biofilm kill mix: 20

What do the screens show for `COc1ccc(C(=O)CCNc2ccc(F)cc2)cc1`?
Biofilm kill mix: 18

Results for CCOC(=O)C1(Cc2ccccc2)CCN(Cc2cnc(N3CCOCC3)s2)CC1 ?
Biofilm kill mix: 9

Results for CCOC(=O)C(=N/O)/C(C)=N/NC(=O)C(=O)Nc1ccc(Cl)cc1 ?
Biofilm kill mix: 12

How did CN(C)S(=O)(=O)c1cccc2c1C(=O)c1ccccc1C2=O do in these assays?
Biofilm kill mix: 9

How did Cc1ccc2c(c1)N(C(C)C(=O)NCc1cccs1)C(=O)CO2 (centres undefined) do in these assays?
Biofilm kill mix: 13

Results for Cc1cc(C)c(C(=O)/C=C/c2ccco2)c(=O)[nH]1 ?
Biofilm kill mix: 2

Results for O=C(N/N=C/C(Br)=C/c1ccccc1)NC1CCCCC1 ?
Biofilm kill mix: 14

How did COC(=O)[C@@H]1CCCN1Cc1nc(Cc2ccc(OC)c(OC)c2)no1 do in these assays?
Biofilm kill mix: 10

What do the screens show for `Cc1cc(C(F)(F)F)n(-c2nc(C(=O)Nc3cccnc3)cs2)n1`?
Biofilm kill mix: 13

Results for CCn1c(O)c(N=NC(=O)Cn2ccc(C(F)(F)F)n2)c2ccccc21 ?
Biofilm kill mix: 6

How did COC(C(=O)Nc1ccc(Br)cc1F)c1ccccc1 (centres undefined) do in these assays?
Biofilm kill mix: 16

How did Cc1ccc(C#N)c(SCc2nnc(-c3ccc(Cl)cc3)o2)n1 do in these assays?
Biofilm kill mix: 17

What do the screens show for `O=S1(=O)N=C(N(Cc2cccs2)c2ccc(O)cc2)c2ccccc21`?
Biofilm kill mix: 4

Results for CC(=O)N/N=C(\C)C1COc2ccccc2O1 (centres undefined) ?
Biofilm kill mix: 16

How did COCCn1c(=NC(=O)c2ccccc2[N+](=O)[O-])sc2cc(S(C)(=O)=O)ccc21 do in these assays?
Biofilm kill mix: -1

How did Cn1c(=O)c([N+](=O)[O-])c(-n2ccnc2)c2ccccc21 do in these assays?
Biofilm kill mix: 5

Results for N#Cc1ccc(/C=N/NC(=O)CCc2ccc(S(=O)(=O)N3CCOCC3)cc2)cc1 ?
Biofilm kill mix: 13

What do the screens show for `CSc1ccccc1NC(=O)C1C2CCC(C2)C1C(=O)O` (centres undefined)?
Biofilm kill mix: -3

What do the screens show for `ClCc1csc(-c2ccc(Cl)cc2)n1`?
Biofilm kill mix: 22

How did CCOC(=O)Cn1nc(C)c(NC(=O)COc2ccccc2[N+](=O)[O-])c1C do in these assays?
Biofilm kill mix: 15

Results for Cc1ccc(N2CC(C(=O)Nc3ccc(C)c(S(=O)(=O)N(C)C)c3)CC2=O)cc1 (centres undefined) ?
Biofilm kill mix: 32

How did O=C(Nc1ccccc1)OC1CCS(=O)(=O)C1 (centres undefined) do in these assays?
Biofilm kill mix: 16

How did CCCP(=O)(CCC)CCP(=O)(c1ccccc1)c1ccccc1 do in these assays?
Biofilm kill mix: 4

Results for CCCN1C(=O)C(O)(C2COC(C)(C)CC2=O)c2ccccc21 (centres undefined) ?
Biofilm kill mix: 18

Results for Cc1cc(C(F)(F)F)nn1CC(=O)Nc1ccc(Br)c2cccnc12 ?
Biofilm kill mix: 13

What do the screens show for `CCOC(=O)c1[nH]c(C)c(C(=O)OCC(=O)NC2CCS(=O)(=O)C2)c1C` (centres undefined)?
Biofilm kill mix: 17

What do the screens show for `CCC(=O)c1ccc(OCc2ccc(C#N)cc2)cc1`?
Biofilm kill mix: 1

Results for C/C(=N\NC(=O)c1c(Cl)cnn1C)c1ccc(NC(=O)c2ccncc2)cc1 ?
Biofilm kill mix: 8

What do the screens show for `CCc1nnc(NC(=O)C2=CCN(S(=O)(=O)c3ccc(F)cc3)CC2)s1`?
Biofilm kill mix: 5

How did Cc1ccc(NC(=S)N2CCCCC2CO)cc1C (centres undefined) do in these assays?
Biofilm kill mix: 0

Results for CC(C)NS(=O)(=O)c1ccc(OCC(=O)N2CCc3ccccc3C2)cc1 ?
Biofilm kill mix: -2

Results for Cc1ccc(NC(=S)NCc2ccccc2)cc1[N+](=O)[O-] ?
Biofilm kill mix: 17

How did CCN(CC)S(=O)(=O)c1ccc(-c2csc(C)n2)cc1 do in these assays?
Biofilm kill mix: 10

Results for O=C(Nc1nc2ccc(SC(F)F)cc2s1)c1ccc(NS(=O)(=O)c2ccc(F)c(F)c2)cc1 ?
Biofilm kill mix: 10

Results for CN1CCN(C(=S)NC(=O)c2cccc(S(=O)(=O)N(C)C)c2)CC1 ?
Biofilm kill mix: 12

What do the screens show for `Nc1ccc(NC(=O)c2ccc(C(=O)Nc3ccc(N)cc3)cc2)cc1`?
Biofilm kill mix: 16

Results for Cc1ccc(-c2cnc3n2CCCCC3)cc1 ?
Biofilm kill mix: 9

Results for CCOc1ccc(C(=O)NC(=S)N2CCN(c3ccc(C(F)(F)F)cc3[N+](=O)[O-])CC2)cc1 ?
Biofilm kill mix: -11

What do the screens show for `CC(=O)/C(=C/N(C)C)C(=O)Nc1ccc(Cl)cc1Cl`?
Biofilm kill mix: 13

Results for CN(C)S(=O)(=O)c1cc(NC(=O)COC(=O)C2COc3ccccc3O2)ccc1Cl (centres undefined) ?
Biofilm kill mix: 13

How did CCn1c2ccccc2n2c(=O)c(=O)n(CC(=O)N3CCN(c4ccccc4OC)CC3)nc12 do in these assays?
Biofilm kill mix: 11

What do the screens show for `CC(=O)c1ccc(-c2ccccc2OC(F)(F)F)o1`?
Biofilm kill mix: 13

Results for CCOc1ccc(/C=N/NC(=O)C(C)N(c2ccc(OC)cc2)S(C)(=O)=O)cc1OCC (centres undefined) ?
Biofilm kill mix: 18

How did CCCc1nn(C)c(C(=O)Nc2cccc(C)c2)c1Cl do in these assays?
Biofilm kill mix: 9

Results for Cc1ccc(N2C(=O)CC(Sc3ccccc3C(=O)O)C2=O)cc1 (centres undefined) ?
Biofilm kill mix: 16

What do the screens show for `COCCCNC(=O)C1CCCN(S(=O)(=O)c2ccc(C)cc2)C1` (centres undefined)?
Biofilm kill mix: -2

Results for Cc1ccc(CNC(=O)CCc2ccccc2)cc1 ?
Biofilm kill mix: 0

What do the screens show for `CCN(CC)C1CCS(=O)(=O)C1` (centres undefined)?
Biofilm kill mix: 10

How did CCOC(=O)C1(CCCc2ccccc2)CCN(Cc2ccn[nH]2)CC1 do in these assays?
Biofilm kill mix: 11

How did NN(CCO)C(=S)Nc1ccc(Cl)cc1 do in these assays?
Biofilm kill mix: 11

How did O=C(Nc1ccsc1C(=O)N1CCCC1)c1ccccc1 do in these assays?
Biofilm kill mix: 12

How did O=c1c2ccccc2n2c(-c3ccc(C(F)(F)F)cc3)nnc2n1Cc1ccccc1 do in these assays?
Biofilm kill mix: -8

How did Cc1ccc(CN2CCN(C3CSCCSC3)CC2CCO)cc1 (centres undefined) do in these assays?
Biofilm kill mix: 17

What do the screens show for `O=C(C1CCC(CNc2c(N3CCCC3)c(=O)c2=O)CC1)N1CCc2ccccc21` (centres undefined)?
Biofilm kill mix: 18

Results for CC(C)(C)NC(=O)N1CCCC(C(=O)c2cccc(Cl)c2)C1 (centres undefined) ?
Biofilm kill mix: 22

Results for O=C(c1cccnc1)n1nc(-c2ccco2)nc1NCc1cccs1 ?
Biofilm kill mix: 13

Grouped by structure, those above with an aryl methoxy group.
What do the screens show for `COc1ccc(NC(=O)c2cc(S(=O)(=O)N3CCOCC3)cs2)cc1`?
Biofilm kill mix: 6

Results for COc1ccc(OC)c(NC(=S)NCCN2CCOCC2)c1 ?
Biofilm kill mix: 10

What do the screens show for `COc1ccc(-c2cc(=O)n(CCC#N)[nH]2)cc1`?
Biofilm kill mix: 13

What do the screens show for `COc1ccc(NC(=O)/C=C/c2ccco2)cn1`?
Biofilm kill mix: 13

Results for COc1ccc([N+](=O)[O-])cc1NC(=O)Cn1ccsc1=N ?
Biofilm kill mix: 10

What do the screens show for `COc1ccc(CCN2CN(S(=O)(=O)c3ccccc3)c3nc4ccccc4nc32)cc1`?
Biofilm kill mix: 12

How did COc1cccc(C2C(C(=O)c3ccco3)=C(O)C(=O)N2CCN(C)C)c1OC (centres undefined) do in these assays?
Biofilm kill mix: 5

What do the screens show for `COc1ccc(C(=O)CCNc2ccc(F)cc2)cc1`?
Biofilm kill mix: 18

How did COC(=O)[C@@H]1CCCN1Cc1nc(Cc2ccc(OC)c(OC)c2)no1 do in these assays?
Biofilm kill mix: 10

How did CCn1c2ccccc2n2c(=O)c(=O)n(CC(=O)N3CCN(c4ccccc4OC)CC3)nc12 do in these assays?
Biofilm kill mix: 11

Results for CCOc1ccc(/C=N/NC(=O)C(C)N(c2ccc(OC)cc2)S(C)(=O)=O)cc1OCC (centres undefined) ?
Biofilm kill mix: 18

From PubChem
